# Vaccinia inh – Vaccinia orthopox stage-specific inhibition; Vaccinia-infected cells, mCherry/Venus stage reporter fluorescence; hits give low values; some inactives read as strong as hits; 89,000 compounds, 0.01% hits; activity change (mCherry), % (test concentration not listed); AID 1053133;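 active = mCherry past -33% and 40 or more points under the early reporter, replicates agreeing; inconclusive = past -33% without that gap or agreement; tested in A549 cells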;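 also: scaled between vehicle wells and reference inhibitor wells; 23 nL library stock went into each well; one replicate is shown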
# Vaccinia inh Venus – recorded beside Vaccinia inh, whose call it bears; activity change (Venus), %; measured here: Venus reporter, other viral stage;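 negative = less Venus signal; first of two replicates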
# Active calls of the source: *; ? = inconclusive; / = not tested or not shown; & = joins results of further samples.
# The line under a structure holds: Vaccinia inh	Vaccinia inh Venus
- C[C@H]1CN([C@@H](C)CO)C(=O)Cc2cc(NS(=O)(=O)c3ccc(F)cc3)ccc2O[C@@H]1CN(C)S(=O)(=O)c1ccccc1
 : -5	11
- CC(C)NC(=O)Nc1ccc2c(c1)C(=O)N([C@@H](C)CO)C[C@@H](C)[C@@H](CN(C)C)OCCCC[C@@H](C)O2
 : 14	1
- COc1ccc(C#Cc2ccc([C@@H]3[C@@H](CO)N4CCCCN(C)C[C@@H]34)cc2)cc1
 : ?	/
- COc1ccc(CN(C)C[C@H]2OCCCC[C@@H](C)Oc3ccc(NC(=O)NC4CCCCC4)cc3C(=O)N([C@H](C)CO)C[C@@H]2C)cc1
 : -4	-5
- COc1ccc(NC(=O)N(C)C[C@@H]2OCCCC[C@@H](C)Oc3ccc(NC(=O)Nc4ccc5c(c4)OCO5)cc3C(=O)N([C@H](C)CO)C[C@H]2C)cc1
 : -13	-22
- COCC(=O)N1[C@H](C#N)[C@@H](c2ccc(-c3cccc(F)c3)cc2)[C@@H]1CO
 : 6	3
- O=C(c1ccc(F)cc1)N1CC(=O)N2[C@H](CO)[C@@H](c3ccc(C#CC4CCCC4)cc3)[C@@H]2C1
 : -11	-12
- O=C(NC1CCC1)[C@@H]1[C@@H](CO)[C@@H]2Cn3c(ccc(-c4ccccc4)c3=O)[C@H]1N2Cc1cocn1
 : 19	25
- COc1ccccc1-c1ccc([C@H]2[C@@H](C#N)N(C(=O)CN(C)C)[C@H]2CO)cc1
 : 3	-2
- COc1ccc(CN(C)C[C@@H]2OCCCC[C@H](C)Oc3ccc(NS(=O)(=O)c4cn(C)cn4)cc3C(=O)N([C@H](C)CO)C[C@H]2C)cc1
 : 2	-3
- O=C(c1cccc(F)c1)N1CCCCN2[C@H](CO)[C@H](c3ccc(-c4cccnc4)cc3)[C@H]2C1
 : 19	0
- CO[C@H]1CN(C)C(=O)c2cc(NC(=O)C3CCC3)ccc2OC[C@H](C)N(C(=O)NC(C)C)C[C@H]1C
 : -1	-1
- CC(=O)N(C)C[C@H]1Oc2ncc(-c3cccc(C#N)c3)cc2C(=O)N([C@@H](C)CO)C[C@@H]1C
 : 29	-3
- CCCC#Cc1ccc([C@H]2[C@@H](CO)N3CCCCN(S(=O)(=O)c4ccccc4C)C[C@@H]23)cc1
 : ?	/
- COc1ccc(NC(=O)Nc2ccc3c(c2)C(=O)N([C@H](C)CO)C[C@H](C)[C@H](CN(C)S(C)(=O)=O)OCCCC[C@H](C)O3)cc1
 : 15	8
- COc1ccc(NC(=O)Nc2ccc3c(c2)CC(=O)N([C@H](C)CO)C[C@@H](C)[C@@H](CN(C)C(=O)Nc2ccc4c(c2)OCO4)O3)cc1
 : 8	4
- Cc1ccc(S(=O)(=O)N(C)C[C@H]2Oc3ccc(N(C)C)cc3CC(=O)N([C@H](C)CO)C[C@H]2C)cc1
 : 13	3
- COc1cccc(S(=O)(=O)Nc2ccc3c(c2)C(=O)N(C)[C@H]2CC[C@H](CC(=O)Nc4ccc(C(C)C)cc4)O[C@@H]2CO3)c1
 : ?	/
- COc1ccc(NC(=O)N(C)C[C@@H]2Oc3ncc(C#Cc4ccc(C(F)(F)F)cc4)cc3C(=O)N([C@H](C)CO)C[C@@H]2C)cc1
 : ?	/
- O=S(=O)(N[C@@H]1CC[C@H](CCn2cc(-c3ccccn3)nn2)O[C@@H]1CO)c1cccc(F)c1
 : 13	15
- O=C(Nc1cc(F)ccc1F)N1CCCCN2[C@H](C1)[C@H](c1ccc(-c3ccccc3)cc1)[C@@H]2CO
 : -24	-20
- C=CCNC(=O)[C@@H]1[C@H]2C(=O)O[C@H](c3ccccc3)[C@H](c3ccccc3)N2[C@H](c2ccccc2OCCO)[C@@]12C(=O)N(C(=O)OCCOC)c1ccc(C#CC3=CCCCC3)cc12
 : -4	5
- COc1cccc(-c2ccc3c(c2)[C@H]2[C@H](CCN2S(=O)(=O)c2cn(C)cn2)[C@H](CO)N3)c1
 : -14	-11
- CC(C)CC#Cc1cnc2c(c1)C(=O)N([C@@H](C)CO)C[C@H](C)[C@@H](CN(C)C(=O)c1cnccn1)O2
 : 19	8
- Cc1cccc(S(=O)(=O)N2C[C@@H](O)COC[C@@H]3O[C@H](CC(=O)Nc4ccccc4)CC[C@H]32)c1
 : -13	-1
- CCN(C[C@@H]1[C@@H](c2ccccc2)[C@H](CO)N1C(=O)C1CC1)C(=O)NC1CCCC1
 : 17	16
- CC(C)CC#Cc1ccc2c(c1)O[C@H](CN(C)C(=O)C1CCCCC1)[C@@H](C)CN([C@H](C)CO)S2(=O)=O
 : -19	-12
- CN1C(=O)c2cc(NC(=O)c3ccc(F)c(F)c3)ccc2OC[C@H]2O[C@@H](CC(=O)N3CCOCC3)CC[C@H]21
 : -15	-10
- Cc1noc(C)c1NC(=O)N[C@H]1C=C[C@H](CC(=O)NCCCN(C)C)O[C@H]1CO
 : 5	3
- COc1ccc(NC(=O)N(C)C[C@H]2Oc3ccc(NC(=O)Nc4ccc(C(F)(F)F)cc4)cc3CC(=O)N([C@H](C)CO)C[C@@H]2C)cc1
 : -9	-5
- COc1ccc(S(=O)(=O)Nc2ccc3c(c2)C(=O)N([C@@H](C)CO)C[C@@H](C)[C@@H](CN(C)Cc2ccc(C(=O)O)cc2)O3)cc1
 : 11	12
- C=CCOC(=O)[C@H]1[C@@H]2C(=O)O[C@@H](c3ccccc3)[C@@H](c3ccccc3)N2[C@@H](c2ccc(OCCOC(=O)[C@H]3C[C@H]4C(=O)N[C@@H](Cc5ccccc5)C(=O)N4[C@H]3c3ccc(O)cc3)cc2)[C@]12C(=O)Nc1ccc(I)cc12
 : 16	6
- Cc1ccccc1-c1cnc2c(c1)C(=O)N([C@@H](C)CO)C[C@H](C)[C@H](CN(C)C(=O)c1cccnc1)O2
 : 6	-6
- COc1ccc(S(=O)(=O)Nc2ccc3c(c2)C(=O)N([C@@H](C)CO)C[C@H](C)[C@@H](CN(C)C(=O)Cc2ccccc2)OCCCC[C@H](C)O3)cc1
 : -29	-27
- O=C(C[C@@H]1C=C[C@@H](NC(=O)Nc2ccc3c(c2)OCO3)[C@@H](CO)O1)NCCCN1CCOCC1
 : 5	6
- C[C@@H]1CN([C@@H](C)CO)C(=O)c2cc(NC(=O)Nc3ccccc3)ccc2O[C@@H](C)CCCCO[C@H]1CN(C)Cc1ccc(C(=O)O)cc1
 : 19	15
- CC(=O)N1C[C@H]2[C@@H](c3ccccc31)[C@@H](CO)N2C(=O)c1ccc(F)cc1
 : 14	12
- O=C(Nc1ccccc1)N1CCCCN2[C@H](CO)[C@H](c3ccc(-c4ccccc4)cc3)[C@H]2C1
 : ?	/
- C[C@H]1CN([C@@H](C)CO)C(=O)c2cccc(NS(=O)(=O)c3ccc(F)cc3)c2O[C@@H]1CN(C)Cc1ccc(Cl)c(Cl)c1
 : -6	1
- CO[C@@H]1CN(C)C(=O)c2ccc(NS(=O)(=O)c3ccccc3)cc2OC[C@H](C)NC[C@@H]1C
 : 5	5

# Full records as entered above.
# Cc1cccc(S(=O)(=O)N2C[C@@H](O)COC[C@@H]3O[C@H](CC(=O)Nc4ccccc4)CC[C@H]32)c1 across the screens: Vaccinia inh = -13; Vaccinia inh Venus = -1
# COc1ccc(S(=O)(=O)Nc2ccc3c(c2)C(=O)N([C@@H](C)CO)C[C@H](C)[C@@H](CN(C)C(=O)Cc2ccccc2)OCCCC[C@H](C)O3)cc1 across the screens: Vaccinia inh = -29; Vaccinia inh Venus = -27

# Sorted by count of non-hydrogen atoms (high to low): 7 of the compounds above
# The line under a structure holds: Vaccinia inh	Vaccinia inh Venus
- C=CCNC(=O)[C@@H]1[C@H]2C(=O)O[C@H](c3ccccc3)[C@H](c3ccccc3)N2[C@H](c2ccccc2OCCO)[C@@]12C(=O)N(C(=O)OCCOC)c1ccc(C#CC3=CCCCC3)cc12
 : -4	5
- COc1ccc(NC(=O)N(C)C[C@H]2Oc3ccc(NC(=O)Nc4ccc(C(F)(F)F)cc4)cc3CC(=O)N([C@H](C)CO)C[C@@H]2C)cc1
 : -9	-5
- COc1ccc(S(=O)(=O)Nc2ccc3c(c2)C(=O)N([C@@H](C)CO)C[C@@H](C)[C@@H](CN(C)Cc2ccc(C(=O)O)cc2)O3)cc1
 : 11	12
- CN1C(=O)c2cc(NC(=O)c3ccc(F)c(F)c3)ccc2OC[C@H]2O[C@@H](CC(=O)N3CCOCC3)CC[C@H]21
 : -15	-10
- CO[C@@H]1CN(C)C(=O)c2ccc(NS(=O)(=O)c3ccccc3)cc2OC[C@H](C)NC[C@@H]1C
 : 5	5
- Cc1noc(C)c1NC(=O)N[C@H]1C=C[C@H](CC(=O)NCCCN(C)C)O[C@H]1CO
 : 5	3
- CC(=O)N1C[C@H]2[C@@H](c3ccccc31)[C@@H](CO)N2C(=O)c1ccc(F)cc1
 : 14	12

# Further entries.
# The line under a structure holds: Vaccinia inh	Vaccinia inh Venus
- O=C(C[C@H]1C[C@H]2c3cc(NC(=O)Nc4ccccc4F)ccc3O[C@H]2[C@H](CO)O1)NCc1ccc(Oc2ccccc2)cc1
 : 0	2
- C[C@@H]1CN([C@@H](C)CO)S(=O)(=O)c2ccc(/C=C/c3ccccc3)cc2O[C@@H]1CN(C)Cc1ccc(C(=O)O)cc1
 : 5&11	-1&3
- C[C@H]1CN([C@@H](C)CO)S(=O)(=O)c2ccc(-c3cncnc3)cc2O[C@@H]1CN(C)Cc1ccccn1
 : 17	10
- Cc1noc(C)c1NC(=O)N[C@H]1CC[C@@H](CCNC(=O)C2CCOCC2)O[C@H]1CO
 : -12	-11
- C[C@@H]1CN([C@H](C)CO)C(=O)c2cccc(NS(=O)(=O)c3cn(C)cn3)c2O[C@@H]1CN(C)C
 : 2	0
- C[C@@H]1CN([C@H](C)CO)C(=O)c2cc(NC(=O)Nc3ccc(F)cc3)ccc2O[C@@H](C)CCCCO[C@H]1CN(C)C
 : 10	6
- C[C@@H]1CN([C@@H](C)CO)C(=O)c2cc(NS(=O)(=O)c3cccs3)ccc2O[C@@H](C)CCCCO[C@H]1CN(C)C(=O)Cc1ccccc1
 : 4	-1
- C[C@H]1CN([C@@H](C)CO)C(=O)c2cc(NC(=O)Nc3ccc(F)cc3)ccc2O[C@@H]1CN(C)S(=O)(=O)c1ccccc1
 : -6	0
- COCC(=O)N1C[C@H]2[C@@H](c3ccccc31)[C@@H](CO)N2Cc1cc(F)ccc1F
 : 12	3
- COC(=O)[C@H]1[C@H](CO)[C@H]2Cn3c(ccc(C4=CCCCC4)c3=O)[C@H]2N1Cc1ccc2c(c1)OCO2
 : 6	2
- C[C@@H]1CN([C@@H](C)CO)C(=O)c2cccc(NC(=O)Nc3ccc(F)cc3)c2O[C@@H]1CN(C)Cc1ccncc1
 : -2	1
- O=C(C[C@H]1C[C@H]2c3cc(NC(=O)Cc4ccncc4)ccc3O[C@H]2[C@H](CO)O1)NCC1CC1
 : 8	5
- Cc1ccccc1S(=O)(=O)N1[C@H](C#N)[C@H](c2ccccc2)[C@H]1CO
 : 10	11
- COc1ccc(NC(=O)N(C)C[C@H]2Oc3ccc(NS(=O)(=O)c4cn(C)cn4)cc3CC(=O)N([C@@H](C)CO)C[C@@H]2C)cc1
 : 36	27
- C/C=C/c1ccc([C@H]2[C@@H](CO)N3CCCCN(C(=O)Cc4cccnc4)C[C@@H]23)cc1
 : 11	2
- O=C(C[C@@H]1CC[C@@H]2[C@H](COC[C@@H](O)CN2CC2CCCC2)O1)NCc1ccc(Cl)cc1
 : -8	0
- COc1ccccc1-c1ccc2c(c1)O[C@@H](CN(C)C(=O)c1ccncc1)[C@H](C)CN([C@H](C)CO)S2(=O)=O
 : -8	-7
- CCC(=O)Nc1ccc2c(c1)C(=O)N(C)C[C@@H](OC)[C@H](C)CN(C(=O)C1CC1)[C@H](C)CO2
 : 16	12
- CC(=O)N(C)C[C@H]1[C@H](c2ccc(-c3ccc(F)cc3)cc2)[C@@H](CO)N1C(C)=O
 : -7	-4
- CN(C)CC(=O)N1[C@H](C#N)[C@@H](c2ccc(C#CC3CC3)cc2)[C@@H]1CO
 : -2	2
- C[C@H]1CN([C@@H](C)CO)C(=O)c2cc(NS(=O)(=O)c3cccs3)ccc2O[C@H]1CN(C)Cc1ccc(C(=O)O)cc1
 : 24	19
- Cc1noc(C)c1NC(=O)Nc1ccc2c(c1)C(=O)N([C@H](C)CO)C[C@@H](C)[C@@H](CN(C)S(=O)(=O)c1cccs1)O2
 : 13	9
- C[C@@H]1CN([C@@H](C)CO)C(=O)c2cc(/C=C/c3ccccc3)cnc2O[C@H]1CN(C)C(=O)c1ccc2c(c1)OCO2
 : ?	/
- COc1cccc(-c2ccc3c(c2)O[C@H](CN(C)C(=O)C2CC2)[C@H](C)CN([C@@H](C)CO)S3(=O)=O)c1
 : -7	-8
- C[C@@H]1CN([C@H](C)CO)C(=O)c2cccc(NC(=O)Nc3ccc(F)cc3)c2O[C@@H]1CN(C)CC1CC1
 : 12	12
- Cc1cccc(-c2ccc([C@H]3[C@@H](CO)N4CCCCN(C(=O)NC(C)C)C[C@H]34)cc2)c1
 : -7	-29
- Cc1noc(C)c1NC(=O)N(C)C[C@@H]1OCCCC[C@@H](C)Oc2ccc(NC(=O)CCC(F)(F)F)cc2C(=O)N([C@H](C)CO)C[C@H]1C
 : 25	0
- CO[C@@H]1CN(C)C(=O)c2ccc(NC(=O)Nc3ccc(F)cc3)cc2OC[C@H](C)NC[C@@H]1C
 : -3	2
- C[C@H]1CN([C@@H](C)CO)C(=O)c2cc(NC(=O)Cc3cn(C)c4ccccc34)ccc2O[C@@H]1CN(C)Cc1ccc2c(c1)OCO2
 : 0	-4
- CO[C@H]1CC[C@H]2CCOc3c(C#N)cccc3C(=O)N(C)C[C@H](C)C(=O)N(C)C[C@H]1O2
 : 24	12
- Cc1noc(C)c1NC(=O)Nc1ccc2c(c1)C(=O)N([C@H](C)CO)C[C@H](C)[C@@H](CN(C)C(=O)NC1CCCCC1)O2
 : 19	12
- CC(C)NC(=O)N[C@H]1C=C[C@H](CC(=O)O)O[C@H]1CO
 : 10	13

# Assay outcomes deposited in PubChem by Broad Institute.

# A portion of the library; the hit share may differ from the screen's.
